Compound activity deposited in PubChem by National Center for Advancing Translational Sciences (NCATS).
Six1-Eya2 inh = blocks human Six1 binding to Eya2 | hit rate 0.56% among 360,000 | activity change, % (test concentration not listed) | AlphaScreen GST-Six1/His-Eya2 binding, biochemical; active compounds read low; control for the full effect not named in the record | Q15475+O00167; in the data active = activity change below about -65%; inconclusive = about -30% to -65%; inactive = above about -30%; further: on the % scale 0 is the no-effect control and ±100 the full control effect
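Compounds are tested against tagged Six1 and Eya2 proteins bridged by glutathione donor and nickel acceptor beads; after a one-hour incubation at 37 °C without light, AlphaScreen emission is recorded.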
gsp agonist = gsp mutant agonism; gsp mutant cells, cAMP HTRF, 30 min; control for the full effect not named in the record; Potency, µM (top dose mostly 76.9 µM), for inactives: at the top dose activation (cAMP increase), usual class: activators; hit rate 0.13% among 340,000; AID 624287; active = well fitted activation curve with a large enough effect; inconclusive = small, poorly fitted or top-dose-only effect, or another doubt; inactive = no such curve, though single readings can be large or run the other way; cell line not stated here;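 further: phosphodiesterase inhibitor Ro 20-1724 added with compounds to block cAMP breakdown; potency means the concentration at half of the fitted maximal effect; nearly all actives have a fitted effect of over 60% in size; about a fifth of the inactives were tested at one dose only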
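Cells stably selected in G418 were plated at 2000/well, grown 16-24 hr, then given compounds in DMSO with the PDE inhibitor […] (300 uM solution added) for 30 min at 37C; cAMP was read by HTRF.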
gsp antagonist = antagonists of gsp mutant (McCune-Albright syndrome) | gsp-mutant cells, cAMP HTRF, 30 min; control for the full effect not named in the record | Potency, µM (doses to about 76.9 µM), for the others: top-dose activity change, negative = inhibition, most hits filed as inhibitors | hit rate 0.4% among 340,000; active = falling curve of any shape with a large fitted effect; inconclusive = falling curve, mostly with a smaller effect; inactive = flat or rising curve; cell line not stated here;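 further: intracellular cAMP measured with PDE inhibitor Ro 20-1724 present during compound exposure; potency means the concentration at half of the fitted maximal effect; on the % scale 0 is the no-effect control and ±100 the full control effect; nearly all actives have a fitted effect of over 65% in size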
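G418-selected cells were plated in DMEM/10% FBS for 16-24 h at 37C, then treated with compounds plus the PDE inhibitor […] (300 uM solution added) for 30 min at 37C. Intracellular cAMP was measured by HTRF after 30 min lysis at room temperature.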
CtBP-E1A blk = blocks the CtBP interaction with E1A. AlphaScreen GST-E1A/His-CtBP binding, 1536-well; active compounds read low; control for the full effect not named in the record. activity change, % (concentration not given with the values). hit rate 0.49% among 340,000; in the data active means activity change below about -65%; inconclusive means about -30% to -65%; inactive means above about -30%; further: on the % scale 0 is the no-effect control and ±100 the full control effect
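Protein mix (5X: 125 nM each GST-E1A, His-CtBP) was incubated with pinned compound 2 h at 37 deg C in dark, in 50 mM Tris pH 8.0 buffer with 300 mM NaCl. Glutathione donor and nickel acceptor beads followed; AlphaScreen signal read after 1 h.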
D2 potentiator = potentiates the human D2 dopamine receptor allosterically; P14416; DiscoveRx D2 beta-arrestin cells, luminescence, 90 min; 100% = 57 uM dopamine signal; potentiation, % (no concentration beside the values); hit rate 0.23% among 360,000; AID 624464; active = potentiation of 50% or more; inconclusive = 30% to 50%; inactive = 30% or less;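 further: compound concentration not given in the record; tested on top of an EC20 dose of dopamine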
Target sequence (P14416 whole entry, looked up): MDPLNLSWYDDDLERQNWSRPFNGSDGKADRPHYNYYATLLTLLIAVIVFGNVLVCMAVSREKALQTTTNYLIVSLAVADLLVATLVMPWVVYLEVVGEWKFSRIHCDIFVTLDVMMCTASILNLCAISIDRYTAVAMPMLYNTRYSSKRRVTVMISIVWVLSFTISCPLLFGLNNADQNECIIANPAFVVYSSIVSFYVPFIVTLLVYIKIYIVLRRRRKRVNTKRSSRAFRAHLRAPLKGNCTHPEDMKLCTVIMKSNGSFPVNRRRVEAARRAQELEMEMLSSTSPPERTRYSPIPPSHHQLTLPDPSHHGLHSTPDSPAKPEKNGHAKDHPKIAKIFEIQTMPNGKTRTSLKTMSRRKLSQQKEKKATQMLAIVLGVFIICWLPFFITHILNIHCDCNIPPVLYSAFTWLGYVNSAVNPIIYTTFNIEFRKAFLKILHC
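D2 cells co-treated with compound plus 50 nM dopamine (EC20) for 90 min at 37 deg C to detect potentiation. Beta-arrestin recruitment was read as enzyme-fragment luminescence after 1 h at ambient temperature. Full response was set by 57 uM dopamine.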
D2 agonist = human D2 receptor agonism in beta-arrestin assay; DiscoveRx PathHunter D2 beta-arrestin, luminescence, 90 min; 100% = 57 uM dopamine signal; hit rate 0.084% among 360,000; AID 624465; activation, % (test concentration not listed); in the data active = activation above about 40%; inconclusive = about 15% to 40%; inactive = below about 15%; further: compound concentration not given in the record; the text of the record calls up to 30% inactive
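Agonist mode: compounds alone added to overnight-plated D2 PathHunter cells for 90 min at 37 C, with 57 uM final dopamine (EC100) defining full response. Beta-arrestin recruitment detected by chemiluminescent reagent, read after 1 h at ambient temperature.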
* hit, by the source's call; ? = inconclusive; nt = not tested or not shown; [ ] = another dose, or the depositor's remark. Some of the compounds tested; the hit share may differ from the screen's.

1	CCC(C)NC(=O)CCC(=O)OC1O[C@H]2OC3(C)CC[C@H]4[C@H](C)CCC(C1C)C24OO3 (some centres undefined)
2	C[C@H]1[C@@H](OS(=O)(=O)O)C[C@@H]2C[C@H]([C@@H](O)c3cc(=O)[nH]c(=O)[nH]3)NC3=NC[C@H]1N32
3	CC(C)NC(C)C(=O)c1ccc2ccccc2c1 (centres undefined)
4	Cc1c(CC(=O)N2C[C@H]3C[C@@H](C2)c2cccc(=O)n2C3)c(=O)oc2cc(O)c(Cl)cc12
5	COc1ccccc1NC(=O)Cn1c(=O)oc2cc(S(=O)(=O)N3CCCC3)ccc21
6	COc1ccc(-n2c(O)c(C=Nc3c(C)n(C)n(-c4ccccc4)c3=O)c(=O)[nH]c2=O)cc1
Screen / compound no.,1,2,3,4,5,6
Six1-Eya2 inh,2.8,1.4,-1.6,3.0,3.2,1.8
gsp agonist,-6.2%,nt,-26.1%,nt,?,-0.1%
gsp antagonist,-1.2%,5.2%,6.5%,-3.0%,-1.7%,7.8%
CtBP-E1A blk,8.0,1.8,4.5,4.5,4.1,-4.0
D2 potentiator,24.4,5.6,-19.7,-20.3,-3.2,-7.3
D2 agonist,57.5*,9.9,-12.3,5.6,-4.1,-1.4

7	Cc1cc(OCC(=O)N2CCC(C(=O)O)(c3ccccc3)CC2)c2c(C)cc(=O)oc2c1
8	CC(N)C(=O)OC(C)(C)Cc1ccc(Cl)cc1 (centres undefined)
9	COc1ccc(-n2c(O)c(C=NCCCn3ccnc3)c(=O)[nH]c2=O)cc1
10	O=C(Nc1cccc(Cl)c1)OC1CN2CCC1CC2 (centres undefined)
11	O=C1CC(=O)N(c2ccc3c(c2)OCO3)C(=O)N1
12	COC1C(C)OC(OC2CC(C)(O)Cc3cc4c(c(O)c32)C(=O)c2c(O)cc3c(c2C4=O)OC2OC3(C)C(O)C(N(C)C)C2O)C(OC)C1(C)OC (centres undefined)
Screen / compound no.,7,8,9,10,11,12
Six1-Eya2 inh,0.2,-0.1,-13.8,3.7,1.5,-14.4
gsp agonist,nt,nt,-24.6%,-44.4%[inhibitor],-26.9%,-60.2%[inhibitor]
gsp antagonist,-8.2%,10.4%,4.0%,?,14.2%,5.4%
CtBP-E1A blk,-25.7,11.1,14.1,nt,6.9,-2.7
D2 potentiator,-24.4,-19.9,0.1,-0.2,-6.7,19.3
D2 agonist,-4.1,-10.6,-2.4,6.7,-0.2,8.2

13	COC(=O)C1=C(c2cccc(OCc3ccccc3)c2)C[C@@H]2CC[C@H]1N2C(=O)NCc1cccc(F)c1
14	CC(=O)N1Cc2cnnn2-c2ccccc2C1(C)C#N (centres undefined)
15	O=P1(NC2CCCC2)COc2ccccc2OC1
16	COc1ccc(C=O)cc1
17	CC(C)COP(=O)(OCC(C)C)C(O)c1cccnc1 (centres undefined)
18	CCOC(=O)C(NC(=O)C(Cc1ccc(N(CCCl)CCCl)cc1)NC(C)=O)C(C)C (centres undefined)
Screen / compound no.,13,14,15,16,17,18
Six1-Eya2 inh,-6.3,10.3,3.5,2.2,12.7,7.7
gsp agonist,-29.4%,nt,1.6%,nt,-10.1%[15.4 µM],17.4%[15.4 µM]
gsp antagonist,-8.3%,8.6%,8.4%,7.1%,15.0%,-2.1%
CtBP-E1A blk,-0.6,4.0,3.1,3.0,-3.2,4.6
D2 potentiator,-9.9,-4.3,-1.8,1.3,-0.9,-8.6
D2 agonist,2.0,-1.4,-4.5,1.4,0.6,1.9

Later entries.
Under each structure – Six1-Eya2 inh, gsp agonist, gsp antagonist, CtBP-E1A blk, D2 potentiator, D2 agonist
#19 O=C(CCc1ccccc1)N1Cc2cc(N3CCCCC3)ccc2-n2nncc2C1
→ -10.4, nt, nt, -11.1, -2.6, -2.2
#20 O=C1CC(=O)N(c2ccccc2F)C(=O)N1
→ 11.3, 0.6%, 3.7%, nt, -6.7, 0.1
#21 COc1ccc(C(c2nnnn2Cc2ccccc2)N2CCC(n3c(=O)[nH]c4ccccc43)CC2)cc1 (centres undefined)
→ -18.1, nt, nt, -8.1, ?, 0.8
#22 C[C@H]1CC[C@@]2(C)[C@@H](CC[C@@H]3[C@@H]2CC[C@]2(C)[C@@H](O)CC[C@@H]32)C1
→ 2.1, 8.4%, 10.9%, 8.1, -9.9, -0.6
#23 O=c1[nH]c(=O)n(Cc2ccccc2Cl)c(O)c1C=Nc1ccc(F)cc1
→ -6.8, -20.0%, 4.2%, nt, 1.7, -1.3
#24 COC(=O)C1=C(c2ccc(OC)c(OC)c2)C[C@@H]2CC[C@H]1N2C(=O)NC(C)C
→ 2.8, nt, 6.6%, 4.3, -1.3, -5.4
#25 Cc1ncc([N+](=O)[O-])n1CCOC(N)=O
→ 4.8, 25.3%, 3.1%, nt, -11.4, -0.6
#26 CCCCn1c(O)c(C(C)=NCc2ccco2)c(=O)[nH]c1=O
→ -0.7, 29.7%, 2.7%, nt, -19.6, -5.4
#27 C(=C\c1ccncc1)/c1ccncc1
→ 2.3, ?, 5.0%, -14.1, -10.5, 8.3
#28 Oc1ccccc1Cl
→ 13.3, nt, 5.8%, 11.7, -5.0, 8.6
#29 CCC1(CCO)C(=O)NC(=S)NC1=O
→ 1.4, -6.4%, 8.8%, -3.7, -2.0, -4.9
#30 O=C(COc1ccc(Cl)cc1)N1CCN(C/C=C/c2ccccc2)CC1
→ -14.7, 6.7%[15.4 µM], -6.2%, -2.6, -17.8, -3.2
#31 Cc1cc(N2CCCCC2)ccc1C=C1C(=O)N(C)C(=S)N(C)C1=O
→ -12.6, -4.6%, 5.4%, -2.7, 7.3, 3.0

Among those listed so far, these contain four or more nitrogen atoms.
Under each structure – Six1-Eya2 inh, gsp agonist, gsp antagonist, CtBP-E1A blk, D2 potentiator, D2 agonist
#2 C[C@H]1[C@@H](OS(=O)(=O)O)C[C@@H]2C[C@H]([C@@H](O)c3cc(=O)[nH]c(=O)[nH]3)NC3=NC[C@H]1N32
→ 1.4, nt, 5.2%, 1.8, 5.6, 9.9
#6 COc1ccc(-n2c(O)c(C=Nc3c(C)n(C)n(-c4ccccc4)c3=O)c(=O)[nH]c2=O)cc1
→ 1.8, -0.1%, 7.8%, -4.0, -7.3, -1.4
#9 COc1ccc(-n2c(O)c(C=NCCCn3ccnc3)c(=O)[nH]c2=O)cc1
→ -13.8, -24.6%, 4.0%, 14.1, 0.1, -2.4
#14 CC(=O)N1Cc2cnnn2-c2ccccc2C1(C)C#N (centres undefined)
→ 10.3, nt, 8.6%, 4.0, -4.3, -1.4
#19 O=C(CCc1ccccc1)N1Cc2cc(N3CCCCC3)ccc2-n2nncc2C1
→ -10.4, nt, nt, -11.1, -2.6, -2.2
#21 COc1ccc(C(c2nnnn2Cc2ccccc2)N2CCC(n3c(=O)[nH]c4ccccc43)CC2)cc1 (centres undefined)
→ -18.1, nt, nt, -8.1, ?, 0.8
#25 Cc1ncc([N+](=O)[O-])n1CCOC(N)=O
→ 4.8, 25.3%, 3.1%, nt, -11.4, -0.6
